# From PubChem
# VACV mCherry inh = qHTS for Stage-Specific Inhibitors of Vaccinia Orthopoxvirus: mCherry Reporter Primary qHTS. Vaccinia virus mCherry reporter infection, fluorescence; about a quarter of the inactives have no number. Potency, µM (highest dose often 36.5 µM), inactives show top-dose activity change, negative = inhibition, usual class: inhibitors. 310,000 tested, 0.63% active. AID 720579, 2013; active = well fitted inhibition curve with a large enough effect; inconclusive = small, poorly fitted or top-dose-only effect; inactive = no such curve, though single readings can be large or run the other way; tested in A549 cells; further: nearly all actives have a fitted effect of over 35% in size; inactives centre near -10
# Vaccinia Venus = qHTS for Stage-Specific Inhibitors of Vaccinia Orthopoxvirus: Venus Reporter Primary qHTS; Vaccinia virus Venus reporter expression, fluorescence; Potency, µM (titrated, usually from 36.5 µM), without a hit: top-dose activity change, negative = inhibition, most hits filed as inhibitors; 330,000 tested, 0.46% active; AID 720580, 2013; active means well fitted inhibition curve with a large enough effect; inconclusive means small, poorly fitted or top-dose-only effect; inactive means no such curve, though single readings can be large or run the other way; tested in A549 cells; further: nearly all actives have a fitted effect of over 30% in size; inactives centre near -10
# Numbers without * were called inactive; i = inactive; ? = inconclusive; nt = no result given; [ ] = another dose, or the depositor's remark. On the % scale 0 is the no-effect control and ±100 the full control effect; potency means the concentration at half of the fitted maximal effect.
SMILES,VACV mCherry inh,Vaccinia Venus
CNC(=O)c1sccc1SCc1ccc(Cl)cc1Cl,-24%,-28%
O=C(CSc1nc2ccccc2c(=O)n1CCCN1CCOCC1)N1CCN(c2ccccc2)CC1,-22%,-5%
COC(=O)c1cc2oc(C)cc2n1CC(=O)Nc1ccc(OC)c(OC)c1,-10%,-11%
O=C(/C=C/c1ccco1)NC(=S)Nc1ccc(O)c(-c2nc3ccccc3s2)c1,-20%,-6%
Cc1ccc2oc3c(c(=O)c2c1)C(c1cccc(Br)c1)N(Cc1ccco1)C3=O (stereo not drawn),-7%,-4%
O=C(O)c1ccc(NC(=S)NC(=O)c2cccnc2)cc1,i,-10%
CC(C)CN(C(=O)COC(=O)c1ccccc1SCC(=O)NC1CCCCCC1)C1CCS(=O)(=O)C1 (stereo not drawn),-16%,-7%
c1ccc2[nH]c(Cn3nnc4ccccc43)nc2c1,i,-11%
Nc1nc(-c2cccs2)c(NC(=O)c2ccccc2)s1,-11%,-11%
COc1ccc(C(CNC(=O)Cc2cccs2)N(C)C)cc1 (stereo not drawn),-6%,15%
O=C(Oc1ccc(-c2nc(-c3ccccn3)no2)cc1)c1ccccc1,-11%,-6%
CC1(C)[C@H]2CC[C@]1(C)[C@@H](OC(=O)C[N+]1(C)CCOCC1)C2,i,0%
NNC(=O)Cn1c(-c2ccccc2)cc(=O)n2ncnc12,i[7.34 µM],-18%[7.34 µM]
CN(C(=O)COC(=O)c1ccccc1SCC(=O)NC1CCCCCCC1)C1CCS(=O)(=O)C1 (stereo not drawn),-16%,-10%
CCCN1CNc2c(c(=O)[nH]c(=S)n2-c2ccc(Cl)cc2)C1,-4%,-6%
CC(C)NC(=O)CN1C(=O)c2cccc3cccc1c23,i,-5%
CCC(C)N1C(=O)C2C(C(=O)Nc3cccc(OC)c3)C3C=CC2(O3)C1C(=O)NC1CCCCC1C (stereo not drawn),-22%,-16%
Cc1cccc(NC(=O)CC2C(=O)NC3CCCCC3N2C(=O)c2ccccc2Cl)c1 (stereo not drawn),-6%,-10%
CCCn1c(=O)c2ccccc2n2c(SCC(=O)c3ccccc3)nnc12,-9%,-7%
COCCNC(=O)C1(C)CCCN(Cc2cn(C)c3ccccc23)C1 (stereo not drawn),35%[activator],13%
COc1cc(C2Nc3ccc4ncccc4c3C3=C2C(=O)CCC3)ccc1O (stereo not drawn),?,?
COc1ccc(N2CCN(CC(=O)Nc3c(C)cccc3C)CC2)cc1,-5%,-12%
CCCCN(C=O)c1c(CC)nc2c(OCc3ccc(S(C)(=O)=O)cc3)cccn12,i,-17%
O=C1CC(c2ccccc2)CC(O)=C1C=NCCCO (stereo not drawn),nt,-8%
O=C1NC[C@H](CCCCN2C[C@H](Cc3ccc(O)cc3)N(CCc3ccc(O)cc3)C(=O)C2=O)N(Cc2ccccc2)C1=O,11%,-7%
CCOc1ccc(S(=O)(=O)N2CCC(C(=O)NCc3ccco3)CC2)cc1C,?,-28%
COc1ccc(-c2cc3nc(-c4ccccc4)cc(N4CCC(O)CC4)n3n2)cc1,-19%,-27%
CCOc1ccc(S(=O)(=O)Nc2cccc(C(=O)N3CCN(c4ccccn4)CC3)c2)cc1,?,-22%
COc1ccccc1C(=O)NC(=O)Nc1nc(-c2ccccc2)cc(C(F)(F)F)n1,-10%[7.34 µM],-1%[7.34 µM]
COc1ccccc1OCCSc1nc(-c2ccc(C(C)(C)C)cc2)nc2cc(=O)[nH]n12,i,-5%
CC(=O)c1ccc(N(CC(=O)NC2CCCCC2)C(=O)CNC(=O)c2cccs2)cc1,-15%,-10%
COc1cccc2cc(C(=O)N3CCN(C45CC6CC(CC(C6)C4)C5)CC3)c(=O)oc12,i,-18%
CC(C)COC(=O)N(C)C[C@H]1OCc2cn(nn2)CCCC(=O)N([C@@H](C)CO)C[C@@H]1C,28%,3%
CC(Oc1ccc2c(-c3ccccc3)cc(=O)oc2c1)C(=O)NC(Cc1c[nH]c2ccccc12)C(=O)O (stereo not drawn),i,0%
O=S(=O)(c1ccc(N2CCOCC2)cc1)N1CCOCC1,-1%,-6%
Cc1cccc2nc(-c3ccccn3)c(Nc3ccc(F)cc3)n12,10µM*,?
c1ccc(-c2nnc3sc(-c4csc5c4CCCC5)nn23)cc1,6%,-17%
OC1CCN(c2ncnc3c2nnn3Cc2c(F)cccc2Cl)CC1,-16%,-14%
O=C(COC(=O)Cc1ccc(-c2ccccc2)cc1)NCc1ccc(F)cc1,0%,-8%
CCc1nn(CC(=O)O)c(=O)c2ccccc12,?,-7%
Cc1cccc(NC(=O)CN2CCN(C(=O)c3c(C)nn(Cc4ccccc4)c3C)CC2)c1C,-4%,-4%
COc1cc(-c2n[nH]c(=S)n2-c2cc(C(F)(F)F)ccc2Cl)cc(OC)c1OC,-5%,-5%
COc1cc(Cl)c(C)cc1NC(=O)c1cnc(N2CCCCC2)c2ccccc12,-6%,-7%
COC(=O)C1=C(C)N(Cc2ccccc2)C(=NCC(C)C)N[C@H]1c1ccccc1,-11%,-19%
O=C(NCc1ccccc1)/C(=C\c1ccc([N+](=O)[O-])cc1)NC(=O)c1ccco1,i,1%
Cc1cccc(OCCSc2nc3ccccc3n2CC(=O)N2CCOCC2)c1,-5%,-5%
CC(OC(=O)c1cnc2ccccc2n1)c1ccccc1Cl (stereo not drawn),-9%,0%
CCN(C(=O)Cc1c(C(=O)O)c(C)cn1C)c1cccc(Cl)c1,-14%,-11%
CS(=O)(=O)N1CCN(C(=O)c2cc(-c3cccnc3)nc3ccc(Cl)cc23)CC1,-12%,2%
O=[N+]([O-])c1cc(CN2CCCC2)ccc1Sc1ccc(Cl)cc1,?,-24%
Cc1ccc(C2c3c(oc4ccccc4c3=O)C(=O)N2c2nnc(C)s2)cc1 (stereo not drawn),-14%,-14%
O=C(Nc1ccccc1C(F)(F)F)N1CCOc2ccc(Cl)cc21,10%,-5%
O=C1CN(C(=O)N[C@@H](Cc2ccccc2)C(=O)N[C@@H](Cc2ccccc2)C(=O)O)c2ccccc2N1,5%,0%
O=C(CSc1ncnc2sccc12)N1CCN(C(=O)c2cccs2)CC1,-7%,-20%
O=C1NC(=O)C(c2ccccc2[N+](=O)[O-])=C1Nc1ccc(O)c(Cl)c1,-8%[60.7 µM],-14%
NC(=O)N/N=C/c1coc2ccc3ccccc3c2c1=O,-13%,-8%
COCCn1c(SCC(=O)N2CCCC2)nnc1C(C)C,-12%,-2%
CS(=O)(=O)c1cccc(C(=O)NC(c2ccccc2)c2ccccc2)c1,nt,-23%
COc1ccccc1C(=O)N/C(=C/c1cccc([N+](=O)[O-])c1)C(=O)Nc1cccc(C(=O)O)c1,2%,-7%
CCOc1ccccc1N1CCN(S(=O)(=O)CC)CC1,nt,-2%
# Additional compounds follow.
SMILES,VACV mCherry inh,Vaccinia Venus
CC(=O)c1cc(F)c(N2CCCCCC2)cc1C,-13%,-2%
Cc1nc(SCC(=O)Nc2c(C)n(C)n(-c3ccccc3)c2=O)[nH]c(=O)c1C,-15%,-16%
CC1CCCCN1CCNC(=O)C1CCCN(S(=O)(=O)c2cccc3nsnc23)C1 (stereo not drawn),-13%[7.34 µM],-2%[7.34 µM]
CCc1nc2sc3c(c2c(=S)[nH]1)CC(C)(C)OC3,-14%,-8%
Nc1ccccc1C(=O)NN=Cc1cccnc1,i,2%
Cc1c(NC(=O)CSc2nnc3sc4ccccc4n23)c(=O)n(-c2ccccc2)n1C,0%,-13%
Cc1nnsc1C(=O)NC(C)c1ccccc1 (stereo not drawn),i,19%
Cc1ccc(-c2cc(NC(=O)c3ccccc3Cl)on2)cc1,-13%,-13%
CC(=O)N1N=C(c2cccs2)CC1c1ccco1 (stereo not drawn),0%,19%
Cc1ccc(/C=C(\C#N)C(=O)N2CCCC2)c(C)c1,-2%,-9%
COc1ccc(-c2cc(C)no2)cc1S(=O)(=O)N1CCOc2ccc(C)cc21,-6%,-12%
COC(=O)c1ccc(Cl)cc1NC(=O)Nc1nnc(N(C)C2CCCCC2)s1,-6%,-11%

# An excerpt taken from the entries so far, for reference:
SMILES,VACV mCherry inh,Vaccinia Venus
CCN(C(=O)Cc1c(C(=O)O)c(C)cn1C)c1cccc(Cl)c1,-14%,-11%
CS(=O)(=O)N1CCN(C(=O)c2cc(-c3cccnc3)nc3ccc(Cl)cc23)CC1,-12%,2%
O=[N+]([O-])c1cc(CN2CCCC2)ccc1Sc1ccc(Cl)cc1,?,-24%
Cc1ccc(C2c3c(oc4ccccc4c3=O)C(=O)N2c2nnc(C)s2)cc1 (stereo not drawn),-14%,-14%
O=C(Nc1ccccc1C(F)(F)F)N1CCOc2ccc(Cl)cc21,10%,-5%
O=C1CN(C(=O)N[C@@H](Cc2ccccc2)C(=O)N[C@@H](Cc2ccccc2)C(=O)O)c2ccccc2N1,5%,0%
O=C(CSc1ncnc2sccc12)N1CCN(C(=O)c2cccs2)CC1,-7%,-20%
O=C1NC(=O)C(c2ccccc2[N+](=O)[O-])=C1Nc1ccc(O)c(Cl)c1,-8%[60.7 µM],-14%
NC(=O)N/N=C/c1coc2ccc3ccccc3c2c1=O,-13%,-8%
COCCn1c(SCC(=O)N2CCCC2)nnc1C(C)C,-12%,-2%
CS(=O)(=O)c1cccc(C(=O)NC(c2ccccc2)c2ccccc2)c1,nt,-23%
COc1ccccc1C(=O)N/C(=C/c1cccc([N+](=O)[O-])c1)C(=O)Nc1cccc(C(=O)O)c1,2%,-7%
CCOc1ccccc1N1CCN(S(=O)(=O)CC)CC1,nt,-2%
CC(=O)c1cc(F)c(N2CCCCCC2)cc1C,-13%,-2%
Cc1nc(SCC(=O)Nc2c(C)n(C)n(-c3ccccc3)c2=O)[nH]c(=O)c1C,-15%,-16%
CC1CCCCN1CCNC(=O)C1CCCN(S(=O)(=O)c2cccc3nsnc23)C1 (stereo not drawn),-13%[7.34 µM],-2%[7.34 µM]
CCc1nc2sc3c(c2c(=S)[nH]1)CC(C)(C)OC3,-14%,-8%
Nc1ccccc1C(=O)NN=Cc1cccnc1,i,2%
Cc1c(NC(=O)CSc2nnc3sc4ccccc4n23)c(=O)n(-c2ccccc2)n1C,0%,-13%
Cc1nnsc1C(=O)NC(C)c1ccccc1 (stereo not drawn),i,19%
Cc1ccc(-c2cc(NC(=O)c3ccccc3Cl)on2)cc1,-13%,-13%
CC(=O)N1N=C(c2cccs2)CC1c1ccco1 (stereo not drawn),0%,19%

# (listing goes on)
SMILES,VACV mCherry inh,Vaccinia Venus
COCCNC(=O)c1c(N)n(-c2ccccc2)c2nc3ccccc3nc12,-21%,-17%
Cc1nn(-c2ccccc2)nc1C(=O)OCC(=O)N1CCCCC1C (stereo not drawn),-8%,-19%
COc1ccc(CNC(=O)COC(=O)c2ccccn2)cc1,i,-5%
CCN=C1SC(C(=O)Nc2ccc(Cl)c(Cl)c2)CC(=O)N1CC (stereo not drawn),-10%,0%
COc1cccc(N(C(=O)Cn2nnc3ccccc32)C(C(=O)NCc2ccco2)c2cccnc2)c1 (stereo not drawn),nt,-13%
O=C(/C=C/c1cccc([N+](=O)[O-])c1)Nn1c(-c2ccccc2F)nc2ccccc2c1=O,i,-6%
COc1ccc(C(=O)Nc2ccc(NC(=O)c3cnccn3)cn2)cc1,-14%,-14%
CCOC(=O)C1(CCOc2ccccc2)CCN(Cc2ccccc2O)CC1,i,-18%
Cc1c(N=NC2=C(O)CCCC2=O)c(=O)n(-c2ccccc2)n1C,?,-7%
O=c1c2ccccc2nc(/C=C\c2ccccc2F)n1-c1ccc(O)cc1,i,-15%
O=C(NCCO)C(=O)c1c(-c2ccc(Cl)cc2)cc2ccccn12,i,0%
CCC1(CC)NC(=O)N(CC(=O)Nc2ccc(OCc3ccccc3)cc2)C1=O,-14%,-19%
COc1ccccc1N1CCN(c2ccc3c(c2)S(=O)(=O)c2cccc(C(=O)NCc4ccc(F)cc4)c2C3=O)CC1,0%,-20%
CCOc1ccc(OCC)c(NC(=O)CN2CCN(c3cccc(C)c3)CC2)c1,?,-24%
CCc1ccc(OCC(=O)NC(C)(C)C)cc1,-13%,-10%
CCCn1c2ccccc2c2cnn(CC(=O)NCCCN3CCCC(C)C3)c(=O)c21 (stereo not drawn),i,-22%
Cc1ccc(C)c(C(O)c2ncc(-c3ccccc3F)[nH]2)c1 (stereo not drawn),-17%,6%
COc1cc(/C=N/NC(=O)COc2ccc(C)cc2)ccc1OC(=O)c1cccs1,9%,6%
CC1(C)OC(=O)C2=C(C[C@@H](CCc3ccccc3)O[C@@H]2c2ccc(Cl)cc2)O1,12%,1%
Cn1c(N)c(S(=O)(=O)N2CCN(c3ccccc3Cl)CC2)c(=O)n(C)c1=O,0%,-9%
c1ccc(CNc2nc(N3CCN(Cc4ccccc4)CC3)nc3ccccc23)cc1,?,-28%
COc1cc(NC(=O)C2CC(c3ccccc3O)=NO2)cc(OC)c1OC (stereo not drawn),-27%,-20%
